Bioassay records as filed in PubChem.
NS1 function inh = blocks influenza NS1 protein function | 270,000 compounds, 0.4% hits | S. cerevisiae slowed by influenza A NS1, growth recovery by OD600 | Potency, µM (titrated, usually from 46.1 µM), for inactives: top-dose activity, positive = more growth; active means well fitted rising curve with a large enough effect; inconclusive means small, poorly fitted or top-dose-only effect; inactive means no such curve, though single readings can be large or run the other way; also: nearly all actives have a fitted effect of over 50% in size
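Recovery from NS1-induced slow growth read by OD600 in budding yeast switched to galactose assay medium (pH 6.0, -URA) at 1:100 dilution. Compound 23 nl per well; the matching strain lacking NS1 serves as control.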
StopGo reporter = lowers the luciferase signal of an FMDV 2A StopGo reporter; human cells with a luciferase reporter of 2A StopGo recoding; control for the full effect not named in the record; 410,000 compounds, 1.2% hits; Potency, µM (highest dose often 57.9 µM), without a hit: at the top dose signal change, negative = less light; active = well fitted falling curve with a large enough effect; inconclusive = small, poorly fitted or top-dose-only effect; inactive = no such curve, though single readings can be large or run the other way; tested in HEK293T cells; also: % is scaled to controls: 0 for no effect and ±100 for the full control effect; nearly all actives have a fitted effect of over 45% in size; luciferase light after 4 h
SARS PLpro yeast = SARS-CoV PLP inhibition in yeast; S. cerevisiae expressing SARS-CoV PLpro, growth rescue; control for the full effect not named in the record; Potency, µM (top dose mostly 32.9 µM), for inactives: top-dose activity, positive = growth rescue; 330,000 compounds, 0.19% hits; active means well fitted rising curve with a large enough effect; inconclusive means small, poorly fitted or top-dose-only effect; inactive means no such curve, though single readings can be large or run the other way; also: 0% is about no effect; nearly all actives have a fitted effect of over 55% in size; growth read by luminescence after 48 h
RE007 growth inh = less growth of the S. pombe RE007 Vpr strain | AID 651644 | 360,000 compounds, 0.21% hits | S. pombe RE007 Vpr strain, BacTiter-Glo ATP luminescence, 24 h; control for the full effect not named in the record | Potency, µM (highest dose often 92.2 µM), for inactives: at the top dose activity change, negative = less growth; active = well fitted falling curve with a large enough effect; inconclusive = small, poorly fitted or top-dose-only effect; inactive = no such curve, though single readings can be large or run the other way;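 also: % is scaled to controls: 0 for no effect and ±100 for the full control effect; nearly all actives have a fitted effect of over 50% in size; the assay follows cell death caused by Vpr and the record does not say whether a fall means rescue or toxicity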
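Fission yeast RE007 carrying one integrated HIV-1 vpr copy, seeded at OD 0.01 in PMG+AL medium with 23 nL pinned compound. Grown 24 h at 30 degrees; viability read by BacTiter-Glo luminescence after 5 min.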
Cruzain inh Det = cruzain (T. cruzi) inhibition with detergent | P25779 | purified cruzain, Z-FR-AMC fluorescence, 0.01% Triton | Potency, µM, inactives show max response, negative = inhibition, hits mostly inhibitors | 200,000 compounds, 0.43% hits;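 also: plate controls were neutral wells for no effect and buffer without enzyme for full effect; nearly all actives have a fitted effect of over 40% in size; top concentration of the series not given in the record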
Target sequence (P25779 123-467 limits assumed): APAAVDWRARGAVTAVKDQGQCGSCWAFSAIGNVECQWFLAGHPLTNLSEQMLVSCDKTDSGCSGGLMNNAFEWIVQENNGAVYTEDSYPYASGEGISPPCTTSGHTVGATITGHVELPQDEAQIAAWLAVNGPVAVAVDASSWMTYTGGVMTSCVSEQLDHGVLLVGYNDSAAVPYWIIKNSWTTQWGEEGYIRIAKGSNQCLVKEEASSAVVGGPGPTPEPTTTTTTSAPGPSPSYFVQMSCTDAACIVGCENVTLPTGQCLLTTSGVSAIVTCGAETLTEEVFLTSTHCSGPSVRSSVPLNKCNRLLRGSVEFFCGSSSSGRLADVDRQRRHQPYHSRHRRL
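Cysteine protease activity tested under reducing, mildly acidic conditions (100 mM sodium acetate pH 5.5, 5 mM DTT) plus 0.01% Triton X-100. Cruzain 1.5 nM; substrate Z-FR-AMC 2 uM; 15 min compound preincubation at room temperature.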
LASV entry inh = Lassa virus entry inhibition; Lassa virus pseudotype entry inhibition, cell reporter; control for the full effect not named in the record; Potency, µM (highest dose often 37.9 µM), for the others: top-dose activity change, negative = inhibition, actives largely listed as inhibitors; 300,000 compounds, 1.2% hits; active means well fitted inhibition curve with a large enough effect; inconclusive means small, poorly fitted or top-dose-only effect, or effect the other way; inactive means flat fitted curve, though single readings scatter; tested in HEK293 cells; also: % is scaled to controls: 0 for no effect and ±100 for the full control effect; nearly all actives have a fitted effect of over 50% in size; luciferase read-out
MARV entry inh = Marburg virus entry inhibition; Marburg virus pseudotyped entry inhibition, cell reporter; control for the full effect not named in the record; about a third of the inactives were read at about 46 µM; Potency, µM (highest dose often 37.8 µM), for the others: at the highest dose activity change, negative = inhibition, actives largely listed as inhibitors; 300,000 compounds, 1.8% hits; AID 540276; active = well fitted inhibition curve with a large enough effect; inconclusive = small, poorly fitted or top-dose-only effect, or effect the other way; inactive = flat fitted curve, though single readings scatter; tested in HEK293 cells; about a fifth of its hits are not listed in these tables; also: % is scaled to controls: 0 for no effect and ±100 for the full control effect; luciferase read-out
Cruzain noTriton = inhibitors of Trypanosoma cruzi cruzain without detergent; P25779; purified cruzain, Z-FR-AMC fluorescence, no detergent; Potency, µM, inactives show max response, negative = inhibition, most hits filed as inhibitors; 200,000 compounds, 2.3% hits;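 also: plate controls were enzyme without inhibitor for no effect and buffer without enzyme for full effect; nearly all actives have a fitted effect of over 40% in size; top concentration of the series not given in the record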
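Detergent-free condition (0.00005% Triton X-100) in acetate buffer pH 5.5 with DTT. 1.5 nM enzyme and compound were pre-mixed 15 min, then 2 uM Z-FR-AMC substrate added; reaction progress from fluorescence change between first and third reads (60 s).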
The depositor's hits bear a star; u = inconclusive; x = no result given; & = joins results of further samples; [ ] = remark or other dose. Unless noted, calls follow the shape of the dose curve; as a rule, active = well fitted curve in the direction sought with a large enough effect; inconclusive = small, poorly fitted or top-dose-only effect, or another doubt; inactive = no such curve, though single readings can be large; an effect the other way counts as inactive or inconclusive. Potency is read from the fitted curve at half-maximal effect.

SMILES	NS1 function inh	StopGo reporter	SARS PLpro yeast	RE007 growth inh	Cruzain inh Det	LASV entry inh	MARV entry inh	Cruzain noTriton
Cc1nc2nc(NCc3ccc(Br)cc3)[nH]n2c(=O)c1Cc1ccccc1	x	-11%	x	x	-0.9%	0%[46.1 µM]	7%[46.1 µM]	1%
COc1ccc(CCC(=O)NCc2ccc3c(c2)OCO3)cc1	3%	31%[activator]	1%	8%	x	-12%[46.1 µM]	1%[46.1 µM]	x
Cc1ccc(C(=O)Nc2ccc3nc(SCC(=O)N4CCc5ccccc54)sc3c2)cc1	x	6%	x	x	-2.3%	12%[46.1 µM]	-1%[46.1 µM]	5%
COc1cccc(CN2C(=O)CCC2(C)C(=O)NC2CCCC2)c1 (stereo not given)	4%	-13%	-4%	28%	5.6%	19%	4%	3%
COc1ccc2c(c1)NC(c1cccnc1)=NC(c1ccc(F)cc1)=N2	x	9%	x	x	-1.8%	-3%[46.1 µM]	5%[46.1 µM]	10%
COc1cn(CC(=O)Nc2cccc(C)c2C)c(CN2CCCCC2)cc1=O	x	-3%	x	x	4.6%	20%[46.1 µM]	x	9%
O=C(CN1C(=O)c2cccc3cccc1c23)Nc1cccnc1	5%	-22%	1%	7%	-5.8%	14%	4%	-19%
CCOc1ccc(C(=O)OCCCN(C)C)cc1	13%	-14%	20%	x	-2.7%	6%	11%	2%
CC(=O)N1CCC(N(CCN2CCOCC2)C(=S)Nc2ccc(C)cc2)CC1	x	6%	6%	3%	x	20%[46.1 µM]	14%[46.1 µM]	x
O=C1NC(=Nc2ccccc2Br)SC1(CO)CO	-5%	3%	-4%	17%	x	x	x	x
CCCC(=O)OC1CC(C)N(C(=O)c2ccccc2)c2ccc(C)cc21 (stereo not given)	-2%	0%	-30%	-10%	-0.2%	0%	-22%	0%
CC(C)n1c(=S)[nH]c2scc(-c3cccs3)c2c1=O	9%	-16%	-5%	-12%	x	x	x	x
CCOc1ccc(NC(=O)c2ccccc2NC(=O)CN2CCN(C(C)=O)CC2)cc1	-9%	3%	1%	8%	-1.2%	-13%	-3%&-3%	2%
CCN(C(C)=O)c1nc(CCl)cs1	x	1%	1%	-5%	x	-1%[46.1 µM]	0%[46.1 µM]	x
CC(=O)c1cc2c(cc1NC(=O)CSc1nc3ccccc3[nH]1)OCO2	-12%	x	18%	x	-20%	x	x	-14%
O=c1c2ccccc2nc(SCc2ccc([N+](=O)[O-])cc2)n1CCCO	-1%	-18%	-9%	3%	-9.9%	u	u	u
O=C(CSC(=S)N1CCCC1)Nc1ncc(Cl)cc1Cl	x	-6%	2%	u	x	10%	-12%	x
Cc1ccc(-c2csc3ncnc(SCC(N)=O)c23)cc1	-8%	-26%	-2%	-3%	x	-25%	-21%[46.1 µM]	x
O=C(O)c1cccc(NC(=S)N/N=C/c2cccnc2)c1	10%	-5%	-1%	-6%	x	-16%[46.1 µM]	u	x
COc1ccc2c(c1)C(C)=CC(C)(C)N2C(=O)C(C)N1C(=O)c2ccccc2C1=O (stereo not given)	-38%	x	-33%	3%	-4.7%	u	-25%	20%

Entries above with a thiophene ring, fused or not, in the order listed:
SMILES	NS1 function inh	StopGo reporter	SARS PLpro yeast	RE007 growth inh	Cruzain inh Det	LASV entry inh	MARV entry inh	Cruzain noTriton
CC(C)n1c(=S)[nH]c2scc(-c3cccs3)c2c1=O	9%	-16%	-5%	-12%	x	x	x	x
Cc1ccc(-c2csc3ncnc(SCC(N)=O)c23)cc1	-8%	-26%	-2%	-3%	x	-25%	-21%[46.1 µM]	x

Additional records follow.
SMILES	NS1 function inh	StopGo reporter	SARS PLpro yeast	RE007 growth inh	Cruzain inh Det	LASV entry inh	MARV entry inh	Cruzain noTriton
COc1cc(SC)ccc1C(=O)OCC(=O)NC(=O)NC(C)C	2%	-9%	-3%	-26%	x	4%[46.1 µM]	-1%[46.1 µM]	x
Nc1nn(-c2ccccc2)nc1C(=O)OCc1ccccc1	-4%	26%&60%	10%	-15%	-15%	u	u	u
COC(=O)N1CCN(C(=O)Cc2ccc(Cl)c(Cl)c2)C(CN2CCCC2)C1 (stereo not given)	17%	6%	-1%	x	-3.0%	u	11µM*	2%
Cc1cc(=O)[nH]c(N/N=C/c2ccc(-c3ccc([N+](=O)[O-])cc3)o2)n1	16%	4%	-1%	-5%	x	3%[46.1 µM]	-18%[46.1 µM]	x
COc1ccccc1C=NN=C(N)C(N)=NN=Cc1ccccc1OC	x	-6%	x	-22%	x	-9%	2%	x
N#CC1=C(N)OC2=C(C(=O)CC(c3ccccc3)C2)C1c1ccc2c(c1)OCO2 (stereo not given)	u	u	19%	6%	-7.3%	13µM*	-4%	-3%
O=C(CNC(c1ccccc1)c1ccccc1)Nc1c(F)cccc1F	-27%	13%	-7%	67%	-1.0%	u	u	5%
O=C(CN1CCN(c2ccccn2)CC1)Nc1cccc(S(=O)(=O)N2CCOCC2)c1	3%	-13%	1%	-24%	x	3%	-13%	x
O=C(CCNC(=O)c1ccc(Br)cc1)Nc1nc2ccccc2[nH]1	x	18%	-5%	-1%	x	7%	-3%[46.1 µM]	x
Cc1ccc(S(=O)(=O)N2CCOCC2)cc1NC(=O)CSc1nnnn1C	x	8%	-2%	6%	x	-9%[46.1 µM]	16%[46.1 µM]	x
CC1CN(CCOc2ccc(F)cc2)CC(C)O1 (stereo not given)	-17%	-9%	-1%	-12%	x	x	x	x
CN(C)N=Nc1ccc(S(=O)(=O)NC(=O)Cc2ccccc2)cc1	8%	31%[activator]	u	4%	x	u	23%[46.1 µM]	x
CCC(C)(C(=O)NC1CCCC1)N(CC1CCCO1)C(=O)CNC(=O)c1ccccc1 (stereo not given)	-8%	17%	-2%	0%	5.0%	1%	5%[46.1 µM]	-1%
CCC(C)[C@H](NC(=O)N1CCCC1)C(=O)OC (stereo not given in full)	-1%	7%	5%	-3%	4.2%	14%	-2%	-9%
COc1ccc(C(=O)C2CCN(CC(=O)NCc3ccccc3)CC2)cc1	8%	u	-1%	3%	x	u	-9%[46.1 µM]	x
O=C(CSc1cccs1)NCCc1ccccc1	7%	10%	-2%	-7%	-2.1%	0%	-1%	-19%
CCOc1ccc(OCc2ccc(C(=O)NN=Cc3ccc[nH]3)cc2)cc1	x	-13%	-4%	6%	x	u	0.28µM*	x
Cc1ccc(OCC(O)CN2CCC(Cc3ccccc3)CC2)c(C)c1 (stereo not given)	-17%	4%	-7%	-3%	x	x	x	x
CCc1nn2c(=O)cc(COC(=O)c3cccc(NC(=O)c4ccccc4Cl)c3)nc2s1	x	26%	x	x	1.4%	28%[46.1 µM]	x	-13%
CCCCNC(=S)N(CCN(CC)CC)Cc1cc2cc3c(cc2[nH]c1=O)OCCO3	9%	-3%	1%	-10%	x	x	x	x
COc1ccc(Cl)cc1NC(=O)CN(C)C1CCCCC1	-11%	-27%	3%	u	6.5%	-17%	u	6%
Clc1ccc(Cn2cccc2C2=NCCO2)cc1	0%	-18%	-4%	-14%	-1.8%	10%	-19%	-5%
CC1CCC(C(C)C)C(OCC[N+](C)(C)C)C1 (stereo not given)	0%	-22%	2%	12%	4.4%	u	11%	-18%
CCN(c1ccccc1)c1nnc(NC(=O)Nc2ccc(Br)cc2F)s1	x	-12%	x	x	-5.1%	-11%[46.1 µM]	u	1%
CCOc1cccc(N2C(=O)CC(n3cnc4ccccc43)C2=O)c1 (stereo not given)	-7%	0%	-3%	-17%	4.6%	0%	9%	4%
COc1ccc(N=C2C(=Nc3ccc(OC)cc3)N(c3ccc(OC)cc3)C(=S)N2C(=O)c2ccc(OC)cc2)cc1	9%	39%[activator]	19%	-16%	-4.7%	4%	23%	5µM*
Cc1ccc(C)c(N2CCN(C(=S)NC3CCCCC3)CC2)c1	4%	-7%	-12%	x	0.5%	-2%	-5%	-19%
CC/C(C)=N/Nc1nc(-c2cc3cccc(OC)c3oc2=O)cs1	7%	23%	-1%	-21%	x	-8%	u	x
O=S(=O)(c1cccc(-c2nnco2)c1)N1CCOCC1	-1%	4%	3%	-1%	x	-12%	0%[46.1 µM]	x
Nc1c(C(=O)NC23CC4CC(CC(C4)C2)C3)sc2nc3c(c(C(F)(F)F)c12)CCC3	1%	11%	0%	1%	3.9%	-21%[14.3 µM]	-7%	-1%
Cc1cc(C(=O)Nc2cccnc2)on1	-14%	-7%	u	9%	0.5%	x	x	-2%
CC1(C)Cc2c(C#N)c(NCCN3CCOCC3)nc(-c3ccccc3)c2CO1	-8%	-18%	-2%	-7%	x	-2%	-9%[46.1 µM]	x
COC(=O)c1ccc(CSc2nc(N3CCOCC3)c3c(c2C#N)CC(C)(C)OC3)o1	6%	-20%	7%	3%	-3.9%	3%	9%&9%	u
CCOC(=O)C1CCCN(C(=O)CNC(=O)Cn2ccc3ccccc3c2=O)C1 (stereo not given)	-1%	-9%	0%	-4%	-3.5%	u	-10%	-5%
CCOc1cc(/C=C2/C(=N)N3C(=NC2=O)SN=C3S(C)(=O)=O)ccc1OC(=O)c1ccco1	8%	24%	18%	15%	x	u	u	x
CCN(CC)S(=O)(=O)c1ccc(C(=O)C(C#N)c2ccccn2)cc1 (stereo not given)	-3%	x	0%	2%	-3.1%	-5%	1%	5%
Cc1cc(C(=O)NNC(=O)c2ccc(Cl)cc2Cl)c(C)o1	x	1%	-1%	-13%	x	21%[46.1 µM]	7%	x
COCCN(C(=O)Cc1cccs1)c1nnc(-c2ccncc2)s1	-16%	-26%	-4%	29%	-2.9%	-2%	-7%[46.1 µM]	0%
CC(C)NC(=S)NC(=O)c1ccc(-c2ccccc2)cc1	-13%	-25%	3%	-11%	-5.7%	-3%	u	7%
Cc1oc(-c2ccc(Cl)cc2)nc1CS(=O)CC(=O)NCc1ccc2c(c1)OCO2 (stereo not given)	u	-28%	11%	-7%	x	x	x	x
CC(CN1CCCCCC1)C(=O)NN (stereo not given)	x	-7%	-3%	-7%	x	u	-1%[46.1 µM]	x
COc1cccc(N2CCN(C(=O)C3CCCN(S(=O)(=O)c4cnc[nH]4)C3)CC2)c1 (stereo not given)	u	-21%	12%	1%	-3.0%	x	-5%	2%
